Screens as filed in PubChem BioAssay.
Calb biofilm kill: mixtures killing C. albicans biofilm | inhibition, % at 7.6 µM | C. albicans biofilm persisters + clotrimazole, fluorescence viability; primary screen in compound mixtures of four per well | 120,000 compounds, 0.02% hits;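 active means inhibition above 30.3% in the primary screen of four-compound pools, then above 30% when the compound was retested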;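 further: compounds exposed to preformed 24 h biofilms for 48 h; the number belongs to the whole pool; some results filed as inactive read as strong as hits; inactives centre near 12; 0% = biofilm with clotrimazole alone and 100% = kill control; retested singly at about 60 µM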
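Test system: C. albicans biofilms. Buffer or medium: RPMI/MOPS medium, pH 7.0. Timing: 48 h compound exposure at 37 °C. Technique: Alamar Blue fluorescence. Evaluation: percent inhibition of biofilm viability.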
* marks the source's active call; other numbers are inactive results. An excerpt (hit frequency here may not be typical).

SMILES	Calb biofilm kill
COc1cccc(/C=N/NC(=S)NC2CC3CC2C2C=CCC32)c1O (centres undefined)	6
CCOC(=O)C1CCN(C(=O)c2ccc(NS(=O)(=O)c3ccc(F)cc3C)cc2)CC1	-4
S=C(NCCN1CCOCC1)Nc1ccccc1Cl	11
Clc1ccccc1-c1nc2nc3ccccc3nc2n1-c1ccc2c(c1)OCO2	12
Nc1nnc(CCCCCc2nnc(N)s2)s1	1
Cn1cccc1CC(=O)N/N=C/C=C/c1ccccc1	9
COc1cc(NC(=O)C/C(C)=N/NC(=O)Cc2ccccc2)c(OC)cc1Cl	19
O=S(=O)(Nc1ccc(C(F)(F)F)cn1)c1ccccc1	21
c1ccc(CSCc2cn3ccccc3n2)cc1	14
Cc1ccc(S(=O)(=O)N2CCOCC2)cc1NC(=O)COC(=O)CNC(=O)c1ccc(Oc2ccccc2)cc1	9
CCCCCN1C=CC=C/C1=C\C=C(C#N)C#N	14
COc1cc(OC)c2c(-c3ccccc3)cc(=O)oc2c1C(CCN1CCCC1)c1ccc2c(c1)OCO2 (centres undefined)	10
CCCNC(=S)NNC(=O)c1cccs1	12
Cn1c(SCC(=O)N/N=C/c2cccnc2)nnc1-c1ccccc1	14
CNC(=O)CS(=O)CC(=O)Nc1cc(OCCOC)c(Cl)cc1Cl (centres undefined)	3
CCc1nc2ccc(C(=O)NCc3ccccc3)cc2nc1CC	-3
COc1ccc(-n2c(-c3ccc(Cl)cc3)c[n+]3c2CCc2ccccc2-3)cc1	11
NS(=O)(=O)c1ccc(NC(=O)C(Sc2ccccc2)c2ccccc2)cc1 (centres undefined)	12
Clc1ccc(Cn2ccc(C3CC3)n2)cc1	-5
Cc1ccc(C(=O)NCC(=O)O)o1	5
COc1coc(C(O)C[N+](=O)[O-])cc1=O (centres undefined)	8
COc1ccc(O[C@H]2C=C[C@@H](c3ccccc3)O[C@@H]2CO/N=C(\C)CCC(=O)OC[C@H]2O[C@H](c3ccccc3)C=C[C@@H]2Oc2ccc(OC)cc2)cc1	-4
COc1ccc(NC(=O)C2CCN(S(=O)(=O)c3cccnc3)CC2)cc1Cl	14
CN(NC(=O)Nc1ccccc1)c1cnn(C)c(=O)c1Cl	14

Taken from above:
Entry for COc1cc(NC(=O)C/C(C)=N/NC(=O)Cc2ccccc2)c(OC)cc1Cl in Calb biofilm kill: 19
Entry for Cc1ccc(C(=O)NCC(=O)O)o1 in Calb biofilm kill: 5
Entry for COc1ccc(O[C@H]2C=C[C@@H](c3ccccc3)O[C@@H]2CO/N=C(\C)CCC(=O)OC[C@H]2O[C@H](c3ccccc3)C=C[C@@H]2Oc2ccc(OC)cc2)cc1 in Calb biofilm kill: -4

Carrying on:
SMILES	Calb biofilm kill
CC1CCCN(CCCCOc2cccc(Br)c2)C1 (centres undefined)	11
COc1ccc(CCC(=O)N2CCCSC2=Nc2ccc(C(C)=O)cc2)cc1	14
Cc1cccc(NS(=O)(=O)c2cc(OCC(N)=O)c(C)cc2Cl)c1	17
CCn1c(COc2ccc3c(c2)CCCC3)nnc1SCC(=O)Nc1ccc(C(=O)OC)cc1	8
O=C(Nc1cc(=O)[nH]c2nc(-c3ccccc3)nn12)c1ccc(Cl)cc1	22
CC1CCC(NC(=O)C2CCC(CNc3c(N4CCCCC4)c(=O)c3=O)CC2)CC1 (centres undefined)	15
CCOc1ccc(NC(=O)Nc2cc(-c3ccccc3)sc2C(=O)OC)cc1	18
CC[N+]1(CC(O)COC2CC(C)CC(C)(C)C2)CCOCC1 (centres undefined)	10
CCN(c1ccccc1)S(=O)(=O)c1ccc(Cl)c(NC(=O)CSc2nncn2C)c1	-9
Cc1ccsc1/C=N/n1cnnc1	31
CCCn1c(N)c(C(=O)NS(=O)(=O)c2ccc(C)cc2)c(=O)n(C)c1=O	17
CC12CCC(C(=O)N(c3cccc(Cl)c3)C1=O)C2(C)C (centres undefined)	18
COc1ccccc1N(Cc1ccccc1)S(=O)(=O)c1cc(C(=O)O)ccc1Cl	5
O=C(NNC(=O)c1ccc(F)cc1F)c1ccc2c(c1)OCO2	10
Cc1cccc(C)c1NC(=O)CSCC(=O)O	9
COc1ccc(N2CC(C)Cn3c2nc2c3c(=O)n(Cc3ccc(C)cc3)c(=O)n2C)c(OC)c1 (centres undefined)	6
COCC(C)Nc1nc(C)c(C(C)=O)s1 (centres undefined)	-1
COc1cc(/C=C/C(=O)OCC(=O)NC(=O)NCc2ccccc2)ccc1OCC#N	-3
COC(=O)c1cc(C#N)c(OC(C)C)nc1C	12
C[C@@H]1CC[C@]2(O[C@@H](CCO)C[C@@H](O)[C@@H]2O)O1	5
CCc1nc(N2CCN(C(C)=O)CC2)c(C#N)c2c1COC(C)(C)C2	13
CN1CCN(c2ccc(NC(=O)COc3ccccc3[N+](=O)[O-])cc2)CC1	6
C(=N/Nc1nccs1)/c1cccnc1	15
Cc1cc(C(=O)N/N=C/c2ccc(-c3cccc(Cl)c3)o2)n[nH]1	5
CC(=O)c1ccc(N2CCN(C(=O)CCCn3c(=O)[nH]c4ccccc4c3=O)CC2)cc1	16
O=C(CSc1n[nH]c(-c2ccccc2)n1)NCc1cccc(C(=O)O)c1	29
O=C(Nc1cccc(NC(=O)c2ccc3c(c2)OCO3)c1)c1ccccc1	9
O=C(CCCOc1ccc(Cl)cc1Cl)N/N=C/c1ccccc1	2
Cc1ccc(C(C(=O)NC2CCCCC2)N(C(=O)Cc2c[nH]c3ccccc23)c2ccccc2C)o1 (centres undefined)	15
Oc1cccc2c(NC(=S)Nc3ccc(OC(F)F)cc3)cccc12	4
COCc1cccc(NC(=O)CCc2ccccc2)c1	34
CN(C)c1nc(=NCc2ccco2)ss1	3
COc1cccc(/C=N/NC(=O)c2c(C)nc3ccc(Br)cn23)c1	14
CC(C)[C@H]1C=C(C(=O)O)O[C@@H](OCCCCO)C1	17
O=C(Nc1ccc(C(F)(F)F)cc1)c1ccc2nc[nH]c2c1	13
Cc1ccc(CS(=O)(=O)Cc2ccc(C(=O)NCc3cccs3)o2)cc1	10
Cc1ccc(-c2csc(Nc3ccccc3)[n+]2CCc2ccccc2)cc1	1
COc1ccc(S(=O)(=O)N2CCCCCC2)cc1NC(=O)Cc1ccccc1F	12
COc1ccc2cc(/C(C)=N/NC(=S)Nc3cc(S(=O)(=O)N4CCOCC4)ccc3N3CCOCC3)ccc2c1	11
CCCCNC(=O)COC(=O)c1c2c(nc3ccccc13)/C(=C/c1cccs1)CC2	9
N#Cc1nc(Cc2ccccc2)oc1NCc1cccnc1	17
C=CCn1c(O)c(N=O)c2cc(C)ccc21	21
CCCN1C(=O)C2(SC(NC(C)=O)=NN2C(C)=O)c2cc(C)cc(C)c21 (centres undefined)	12
Cc1c(NC(=O)C(C)OC(=O)C23CC4CC(CC(Br)(C4)C2)C3)c(=O)n(-c2ccccc2)n1C (centres undefined)	16
O=C(Nc1ccccc1F)c1ccccc1-c1ccccc1	20
CSc1nc(Cl)cc(=O)[nH]1	23
Cc1sc2ncn(CC(=O)N3CCOCC3)c(=O)c2c1-c1ccccc1	13
O=C(NC(c1ccccc1)C(Cl)(Cl)Cl)c1ccccc1 (centres undefined)	14
Cc1nc2c(ncn2-c2ccccc2)c(=O)n1NC(=O)CN1CCOCC1	11
COC(=O)c1c[nH]n2c(=O)c(Cl)c(C)nc12	17
CCOC(=O)c1ccc(NC(=O)Cn2ncc(Cl)c(Cl)c2=O)cc1	13
COc1ccc(C(CNC(=O)c2ccco2)N2CCCCC2)cc1 (centres undefined)	8
CCc1cc2c(=O)c(-c3nc(C)cs3)coc2cc1O	19
CC(C)(C)c1cc(/C=N/O)cc(C(C)(C)C)c1O	10
Cn1cc(C(=O)c2cccc(Cl)c2Cl)cc1C#N	-1
O=C(Nc1ccc(Cl)cc1)c1ccc(OCC2CCCO2)cc1 (centres undefined)	10
CC(C)(C)c1ccc(NC(=O)CNC2CCCc3ccccc32)cc1 (centres undefined)	24
CC(=O)NC(NC(=S)Nc1ccc(C)cc1C)C(Cl)(Cl)Cl (centres undefined)	13
COc1cccc(CC(=O)Nc2cc(S(=O)(=O)N3CCOCC3)ccc2N2CCOCC2)c1	11
CCCCN1C(=O)C(=O)N(CC(=O)N2N=C3/C(=C/c4ccco4)CCCC3C2c2ccco2)C1=O (centres undefined)	9

Among those listed so far, these contain a furan ring, fused or not.
SMILES	Calb biofilm kill
Cc1ccc(C(=O)NCC(=O)O)o1	5
Cc1cc(C(=O)N/N=C/c2ccc(-c3cccc(Cl)c3)o2)n[nH]1	5
Cc1ccc(C(C(=O)NC2CCCCC2)N(C(=O)Cc2c[nH]c3ccccc23)c2ccccc2C)o1 (centres undefined)	15
CN(C)c1nc(=NCc2ccco2)ss1	3
Cc1ccc(CS(=O)(=O)Cc2ccc(C(=O)NCc3cccs3)o2)cc1	10
COc1ccc(C(CNC(=O)c2ccco2)N2CCCCC2)cc1 (centres undefined)	8
CCCCN1C(=O)C(=O)N(CC(=O)N2N=C3/C(=C/c4ccco4)CCCC3C2c2ccco2)C1=O (centres undefined)	9

Continuation:
SMILES	Calb biofilm kill
N#Cc1cn(CC(=O)N2CCCc3ccccc32)c2ccccc12	13
Cc1ccc(S(=O)(=O)N2CCN(Cc3ccccc3)CC2)c(C)c1N(C)S(=O)(=O)c1ccccc1	-4
C=CCN(C(=O)CSc1nc2c(sc3ccccc32)c(=O)n1CCN(CC)CC)c1ccccc1	11
Clc1cccc2c1CCN(Cc1nc(-c3cnccn3)no1)C2	8
O=C1c2cccc(OCc3ccc(F)cc3)c2CCN1Cc1ccccc1	-5
Cc1cc(C)nc(S/C=C/C(=O)c2ccccc2F)n1	24
C=CCn1c(C)nnc1SCC(=O)N1CCN(S(=O)(=O)c2ccccc2)CC1	17
COc1ccc(-c2cc(C(F)(F)F)n3ncc(C(=O)N(C)Cc4ccccc4)c3n2)cc1	18
CC(C)(C)NC(=O)CN(CCc1ccccc1)C(=O)c1csnn1	20
CNC(=O)c1ccsc1NC(=O)c1ccc2c(c1)CCCC2	12
Cc1ccc(NC(=O)CN(C)C(=O)COc2cc(F)ccc2[N+](=O)[O-])cc1	11
CCCNC(=O)N1CCN(S(C)(=O)=O)CC1	3
O=C1Nc2ccccc2N2CCCC12 (centres undefined)	7
CCN(CC)c1ccc(/C=N/NC(=O)c2ccco2)c(O)c1	16
O=C(N/N=C/c1cc(Br)c(O)c(Br)c1)c1cccc(C(F)(F)F)c1	11
COc1ccc(-c2ocnc2C(=O)N2CCN(Cc3cccnc3)CC2)cc1	22
CCc1ccc(C(=O)NC(CCSC)C(=O)O)cc1 (centres undefined)	6
Cc1ccccc1NC(=S)N1CCN(C(=O)c2ccco2)CC1	14
O=C(c1ccccc1)c1nccn1-c1ccc(Cl)nn1	18
O=C(COc1ccccc1)Nc1nnc(C23CC4CC(CC(C4)C2)C3)s1	9
CCCCCCCCCCC(=O)NNC(=O)c1c(O)c2ccccc2n(CC)c1=O	-7
O=S(=O)(/N=C(/Nc1ccccc1)c1ccccc1)c1cccs1	18
C/C(=N/NC(=O)CNC(=O)c1ccccn1)c1cccc([N+](=O)[O-])c1	11
CCOC(=O)C(C)Sc1nnc(NC(=O)c2ccc3c(c2)OCO3)s1 (centres undefined)	13
CC(C)CNC(=O)c1cccc(NC(=O)CSc2ccc(Cl)cc2)c1	17
COc1cnc(-c2ccccn2)nc1N(C)C	14
Fc1ccc(-c2n[nH]c(=S)c3ccccc23)cc1	9
COc1cc(NC(=O)c2ccccc2[N+](=O)[O-])ccc1NC(=O)C(C)C	12
O=C(CSc1ncnc2sc(-c3ccccc3)cc12)NC1CCS(=O)(=O)C1 (centres undefined)	6
CCc1ccc(-n2c(C)cc(/C=N/NC(=O)OC)c2C)cc1	17
CCCCCCCn1c(=O)c(C(=O)OC)c(N)c2ccccc21	26
S=C(NCc1ccco1)N1CCN(c2nc(-c3ccc(Cl)cc3)cs2)CC1	10
COc1cccc(-c2noc(-c3ccc4c(c3)OCO4)n2)c1	13
Cn1cccc1CC(=O)NNC(=S)Nc1ccc(Cl)cc1	11
O=C(Cc1ccccc1Cl)N1CCN(c2ccccn2)CC1	-2
CN(C)/C=C(\c1cnc(Cl)s1)S(=O)(=O)c1ccccc1	10

Retrieved by structure from the entries so far (2):
SMILES	Calb biofilm kill
Cn1c(SCC(=O)N/N=C/c2cccnc2)nnc1-c1ccccc1	14
Nc1nnc(CCCCCc2nnc(N)s2)s1	1

More records
SMILES	Calb biofilm kill
CCC(CC)=NNc1ccc(S(N)(=O)=O)cc1[N+](=O)[O-]	12
Cc1cc2ccccc2n2c(SCC(=O)Nc3ccc(S(=O)(=O)N4CCC(C)CC4)cc3)nnc12	11
CCOC(=O)N1CCN(C(=S)Nc2cc(S(=O)(=O)N3CCOCC3)ccc2Cl)CC1	23
S=C(NCC1CCCO1)N1CCN(c2ccc(Cl)c(Cl)c2)CC1 (centres undefined)	16
CCc1sc(C(=O)NCCc2ccc(S(N)(=O)=O)cc2)cc1Br	3
CC(CCc1ccccc1)N1CCN(Cc2ccccc2)CC1 (centres undefined)	25
COc1cccc(-n2c(SCC(N)=O)nc3ccccc3c2=O)c1	13
CCCn1nc(NC(=O)C2CCCO2)c2cc3ccc(C)cc3nc21 (centres undefined)	-9
COc1ccccc1N1CCN(CCCCOc2cccc3ccccc23)CC1	17
O=C(Nc1ccccc1F)Nc1ccccc1F	6
O=C(Nc1ccon1)C12CC3CC(C1)CC(n1cnc([N+](=O)[O-])n1)(C3)C2	17
COc1ccc(C2(CNC(=O)Cc3ccc(OC)c(OC)c3)CCCC2)cc1	13
Cc1ccc(OCC(=O)N/N=C/C=C/c2ccco2)cc1C	15
CC(=O)Nc1cccc(C(=O)N/N=C/c2cccnc2)c1	17
Cc1cccc(NC(=O)NC2CC3CCC(C2)N3Cc2ccco2)c1 (centres undefined)	14
O=C(N/N=C/c1ccc([N+](=O)[O-])o1)c1cc2ccccc2o1	10
CN(C)c1nc(-c2cccs2)cc(C(F)(F)F)c1C#N	23
Cc1nc2ccc(NC(=S)N3CCC(C)CC3)cc2nc1C	12
